# fixLJ activator: increases Burkholderia fixLJ two-component signaling | hit rate 0.3% among 29,000 | z-score (concentration not given with the values) | B. multivorans fixK-promoter GFP reporter, 18 h; stronger effect = higher value;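 active = replicate mean overnight rise in green fluorescent reporter signal, 3 or more SD over negative controls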;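 note: score is relative to vehicle wells of the plate; 300 nL library stock went into each well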
# Active calls of the source: *; & = joins results of further samples.
SMILES,fixLJ activator
COc1ccccc1N1CCN(C(=O)CCc2nnc3n(C)c(=O)c4sccc4n23)CC1,0.72
O=C(Cn1c(=O)n(Cc2ccccc2)c(=O)c2sc3ccccc3c21)Nc1ccccc1F,-1.1
CCN(CC)c1cc(C)c2cc(NC(=O)c3cccc(F)c3)ccc2n1,-0.51
CCc1cccc(NC(=O)COc2cc(=O)n(CC)c3ccccc23)c1,1.9
Cc1ccc(NC(=O)Cn2cc3c(n2)CCC(C)C3)cc1C (stereo unspecified),-1.9
O=C(NC1CCN(Cc2ccccc2)CC1)c1ccc(Cn2c(=O)c3ccccc3n(Cc3ccc(F)cc3)c2=O)cc1,-3
COc1ccccc1N1CCN(C(=O)c2cn(C)c3ccc(S(=O)(=O)N(C)C4CCCCC4)cc3c2=O)CC1,-0.56
Cc1ccc(CCNC(=O)c2cn(C)c3ccc(S(=O)(=O)N(C)C4CCCCC4)cc3c2=O)cc1,-1.8
O=C(Cn1c(=O)n(-c2ccccc2)c(=O)c2ccc(C(=O)NCc3ccc4c(c3)OCO4)cc21)Nc1ccc(F)c(Cl)c1,-0.54
CCOc1ccccc1C(=O)Nc1ccc2nc3c(c(Nc4ccc(OC)c(OC)c4)c2c1)CCCC3,-1.1
Cc1ccc(CNC(=O)Cn2ncc3c(C)n(Cc4ccc(Cl)cc4)c(C)c3c2=O)cc1,-1.4
CCc1cc(CN(C)C(=O)c2c(C)nn(-c3ccc(F)cc3)c2C)on1,0.01
CC(C)(C)C1CCc2c(sc(NC(=O)Cn3nnc(-c4cccc(C(F)(F)F)c4)n3)c2C#N)C1 (stereo unspecified),-1.6
CCn1ncnc1C(C)NC(=O)N1CCN(c2ccc3nccn3n2)CC1 (stereo unspecified),2.2
COc1cccc(C(=O)N2CC(O)C(Cc3cnccn3)C2)c1C (stereo unspecified),0.33
CC(=O)N1CCc2c(sc3nc(SCC(N)=O)n(-c4ccc(F)c(Cl)c4)c(=O)c23)C1,-1.3
COCCCCCC(=O)N1CCN(c2ccc(OC)cc2)C(=O)C1,-2
CCOc1ccccc1CNC(=O)c1cc(-c2ccc(Cl)s2)nc2ccccc12,-0.79
CCNC(=O)CN1CCc2[nH]nc(-c3ccc(-c4ccccc4)cc3)c2C1,0.9
COc1cccc(CNCCNC(=O)c2nonc2N)c1,-1.6
COc1ncc(-c2c(-c3ccccc3)ncn2CC(C)C)cn1,-0.99
CCOC(=O)c1cccc(NC(=O)[C@H](CSCc2ccccc2)N2Cc3ccccc3C2=O)c1,0.4
Cc1ccc(C)c(N2CCN(c3nc4ccccc4n4nnnc34)CC2)c1,0.1
N#Cc1cc(F)cc(C(=O)Nc2ccnn2Cc2cccc(Cl)c2)c1,0.43

# 4 entries from above, set out differently:
Structure: COc1cccc(C(=O)N2CC(O)C(Cc3cnccn3)C2)c1C (stereo unspecified)
- fixLJ activator: 0.33
Structure: CC(=O)N1CCc2c(sc3nc(SCC(N)=O)n(-c4ccc(F)c(Cl)c4)c(=O)c23)C1
- fixLJ activator: -1.3
Structure: COCCCCCC(=O)N1CCN(c2ccc(OC)cc2)C(=O)C1
- fixLJ activator: -2
Structure: CCOc1ccccc1CNC(=O)c1cc(-c2ccc(Cl)s2)nc2ccccc12
- fixLJ activator: -0.79

# Further compounds:
SMILES,fixLJ activator
Cc1ccc2c(=O)cc(C(=O)Nc3ccc(S(=O)(=O)N(C)c4ccccc4)cc3)oc2c1C,-2
COCCN1Cc2cccc(C(=O)Nc3ccc(C)c(F)c3)c2C1=O,-1.4
Cc1ccc2cc3cc(C(=O)N4CCN(c5cccc(C(F)(F)F)c5)CC4)sc3nc2c1,-1.6
COCCNC(=O)CCCn1c(SCC(=O)c2ccc(Br)cc2)nc2c(sc3ccccc32)c1=O,0.09
Cc1ccc(S(=O)(=O)NCc2cc3n(n2)CCN(C(=O)C(C)C)C3)cc1C,-1.7
Cc1ccc(NC(=O)NCC2CCN(Cc3cccc(Cl)c3)CC2)cc1Cl,-2.3
COC(=O)c1nnn(CC(=O)Nc2cc(F)ccc2F)c1C(=O)OC,1.5
Cc1nc(NCC2(c3ccccc3)CCOCC2)cc(C2CC(O)C2)n1 (stereo unspecified),0.45
O=c1c2c3c(sc2nnn1Cc1ccc(Br)cc1)CCCC3,-1.9
Cc1ccc(Cl)cc1NC(=O)CCS(=O)(=O)c1ccc(Br)s1,-1.3
O=C(O)c1ccc(NS(=O)(=O)c2ccc(Cl)c(C(=O)Nc3ccccc3)c2)cc1,-1.5
Cc1cc(CC2CN(c3nc4c(cc3C#N)CCCC4)CC2O)n[nH]1 (stereo unspecified),-0.84
Cc1ccc(NC(=O)CSc2nc(-c3ccco3)cc(C(F)(F)F)n2)c(C)c1,-0.23
Cc1cccc(CC(=O)N2CCCN(CCS(=O)(=O)c3ccccc3)CC2)c1,-1.1
COc1cccc(CCNC(=O)c2cnc3sc(N4CCOCC4)nn3c2=O)c1,1.8
COc1ccc(-c2cc(C(F)(F)F)c(C#N)c(SCC(=O)Nc3ccccc3F)n2)cc1,-3.2
Cc1ccc(-c2ccc(CCC(=O)O)n2-c2ccc(C(C)C)cc2)cc1,-1.6
Cn1c(=NC(=O)c2ccc(S(=O)(=O)N3CCCc4ccccc43)cc2)sc2cc(F)ccc21,-2.1
O=C(CCN1CCC(Oc2ncccn2)CC1)Nc1nccs1,-0.67
COc1ccc(-n2c(=O)c3c4c(sc3n(Cc3ccccc3Cl)c2=O)CCC4)c(OC)c1,0.61
O=C(CC1N=C2c3ccccc3N=C(SCC(=O)Nc3ccccc3F)N2C1=O)NCc1ccc2c(c1)OCO2 (stereo unspecified),-2.5
CCc1ccc(CN(Cc2ccco2)C(=O)c2ccc(C)cc2)cc1,0.58
Cc1ccc(N2C(=O)C(CC(=O)Nc3ccccc3)N(CCC3=CCCCC3)C2=O)cc1 (stereo unspecified),-1.1
CCN(CC)c1ccc(NC(=O)C2CCN(S(=O)(=O)c3cnc[nH]3)CC2)c(C)c1,-1.3
Cn1c(COc2ccccc2C(C)(C)C)nc2ccccc21,0.81
COc1c(C)cc(NS(=O)(=O)c2ccc3c(c2)OCCO3)cc1C,-2.7
Fc1cccc(C2c3nc[nH]c3CCN2Cc2ccc3c(c2)OCCO3)c1 (stereo unspecified),-0.37
CN(CC(=O)NC1COCCC1Oc1cccc(F)c1)C1CCCC1 (stereo unspecified),-0.68
CC(C)CN(CC(C)C)CC(O)Cn1cc(/C=C/C(=O)c2ccccc2)c2ccccc21 (stereo unspecified),-1.7
CCN1Cc2nc(OC)c(CNC(=O)CCc3scnc3C)cc2C1=O,0.63
O=C(Cn1cnnn1)NC1CCCC(NC(=O)c2ccc(Cl)cn2)C1 (stereo unspecified),-1.9
CC(O)CNc1nc2c(c(=O)n(Cc3ccc(Cl)cc3)c(=O)n2C)n1C (stereo unspecified),-1
O=C(NCc1ccccc1)c1ccc(CS(=O)(=O)c2c(Cl)cccc2Cl)o1,-2.1
Cc1cc(C)cc(NC(=O)Cn2c(=O)c3ccccc3n3nncc23)c1,-0.99
Cc1cc2oc(=O)cc(C)c2c2occ(-c3ccc(Cl)cc3)c12,-1.4
CCOC(=O)C1CCN(S(=O)(=O)c2cc(Br)cc3c2N(C(=O)CC)CC3)CC1,-1.1
CN(C)/N=N/c1nc[nH]c1C(N)=O,-0.81&0.29
CCOC(=O)c1ccc(NC(=O)CC2C(=O)N(c3ccccc3)C(=O)N2C2CCCCC2)cc1 (stereo unspecified),-1
Cc1ccc(-c2c(C#N)c(N)nc3c2CN(Cc2cccnc2)CC3)cc1F,-2.2
NCCCOc1ccc(F)cc1C(=O)NCc1noc(C2CCCO2)n1 (stereo unspecified),-0.66
COC(=O)c1cccnc1-n1c(=O)c2cccnc2n(CC(=O)Nc2c(C)cc(C)cc2C)c1=O,0.31
O=C(O)Cc1sc(Nc2ccccc2)nc1-c1ccccc1,-1.8
Cc1ccc(-n2c(-c3ccco3)nc3c(cnn3-c3ccccc3Cl)c2=O)cc1,-1.2
CC(=O)N1CCc2c(sc3c2c(=O)n(CCc2ccccc2)c(=O)n3CC(=O)Nc2ccc(C)c(F)c2)C1,-0.5
O=C(Nc1ccc(OC(F)(F)F)cc1)C(NS(=O)(=O)c1cccc2nsnc12)c1ccccc1 (stereo unspecified),0.51
COc1ccc2nc3oc(C(=O)NCc4ccccc4OC)cc3cc2c1,-1.1
Cc1ccc(-n2ncc3c(=O)n(Cc4cccc(Cl)c4)cnc32)cc1C,-0.45
OCCN1CCN(CCCN2c3ccccc3Sc3ccc(C(F)(F)F)cc32)CC1,-2.2&-0.09
CCOC(=O)c1cc(-c2ccc(C)cc2)n(CCC(=O)NCc2ccccc2)c1C,1.6
CC(C)CC1Nc2ccc(C(=O)NCCCOC(C)C)cc2NC1=O (stereo unspecified),-1.2
CCOc1ccc(NC(=O)Cn2nc(CC)n3c(cc4sccc43)c2=O)cc1,-0.91
Cc1ccc(C(=O)COC(=O)CCC(=O)Nc2ccc(Oc3ccccc3)cc2)cc1,1.8
Cn1ccnc1C(=O)NCCNC(=O)c1ccccc1Cl,-3.2
CCOC(=O)c1c(C)oc2ccc(N(C(=O)c3ccncc3)S(=O)(=O)c3ccc(F)cc3)cc12,-1.4
COc1ccc(C(Nc2ccccn2)c2ccc3ccc(C)nc3c2O)cc1C (stereo unspecified),-1.9
COc1ccc(C(=O)NC(c2cnn(C)c2)C2CC(O)C2)cc1O (stereo unspecified),1.8
CCN1CCC2(CC1)OCCc1cc(C(=O)NCCc3ccncc3)sc12,-2
COc1ccc(CNc2nc(-c3ccc(OC)c(OC)c3)cc(C(F)(F)F)n2)cc1,-0.37
CCCCNc1nc(Oc2ccc(=O)n(C)n2)nc(N(C)C)n1,-1.4
COc1ccc(O)c(C2=Nc3ccccc3N=C(c3ccccc3)C2)c1,3.7*

# Molecules listed so far containing a tert-butyl group, in the order listed:
SMILES,fixLJ activator
CC(C)(C)C1CCc2c(sc(NC(=O)Cn3nnc(-c4cccc(C(F)(F)F)c4)n3)c2C#N)C1 (stereo unspecified),-1.6
Cn1c(COc2ccccc2C(C)(C)C)nc2ccccc21,0.81

# Remaining list, next part:
SMILES,fixLJ activator
Cc1cccc(Oc2ccc3c(c2)Oc2ccccc2NC3=O)c1,-1.6
CCOc1ccccc1NC(=O)c1c(NC(=O)COc2ccccc2)sc2c1CCCC2,-0.08
Cc1cccc(C)c1CN1CCn2nc(CNc3cnccn3)cc2C1,-0.5
Cc1ccc2c(c1)N(C(=O)c1ccc(F)cc1)C(C)(C)CC2(C)c1ccccc1 (stereo unspecified),0.22
COc1ccc(C2(N3CCN(c4cccc(C)c4C)CC3)C(=O)c3ccccc3C2=O)cc1,-0.4
CCc1ccccc1NC(=O)C1CCN(S(=O)(=O)c2ccccc2)CC1,-1.1
CCc1ccc(S(=O)(=O)NCCn2cnc(C)c2C)s1,-1
CN(Cc1noc2c1CCCC2)C(=O)NCC1CCN(c2ccccc2F)C1 (stereo unspecified),-2.1
Cn1nc(-c2ccc(N3CCCCC3)c(NC(=O)c3ccc(Cl)cc3)c2)c2ccccc2c1=O,-0.63
CN(C)c1ccc(-c2nc3cnccn3c2Nc2cccc(C(F)(F)F)c2)cc1,-0.54
O=C(CSc1ccccc1)NCCCNc1cccnc1,-0.14
O=C(CSc1nc(-c2ccccc2)nc2c1CCCC2)c1ccc(F)cc1,-0.62

# 7 structures from above, ordered by SMILES length, lowest first.
SMILES,fixLJ activator
NCCCOc1ccc(F)cc1C(=O)NCc1noc(C2CCCO2)n1 (stereo unspecified),-0.66
Cc1ccc(Cl)cc1NC(=O)CCS(=O)(=O)c1ccc(Br)s1,-1.3
Cc1cccc(CC(=O)N2CCCN(CCS(=O)(=O)c3ccccc3)CC2)c1,-1.1
Cc1ccc(N2C(=O)C(CC(=O)Nc3ccccc3)N(CCC3=CCCCC3)C2=O)cc1 (stereo unspecified),-1.1
COCCNC(=O)CCCn1c(SCC(=O)c2ccc(Br)cc2)nc2c(sc3ccccc32)c1=O,0.09
CCOC(=O)c1ccc(NC(=O)CC2C(=O)N(c3ccccc3)C(=O)N2C2CCCCC2)cc1 (stereo unspecified),-1
CC(=O)N1CCc2c(sc3nc(SCC(N)=O)n(-c4ccc(F)c(Cl)c4)c(=O)c23)C1,-1.3

# Following part.
SMILES,fixLJ activator
CCOc1ccc(-c2nc3c(c(CC)nn3-c3ccccc3)c3cc(OC)c(OC)cc23)cc1,0.1
C=CCc1cccc2cc(C(=O)Nc3ccc(F)cc3)c(=O)oc12,-4.2
CCc1noc(-c2cccc(-n3ccnc3-c3ccncc3)c2)n1,-0.27
CC1=C(C(=O)Nc2cccnc2)C(c2cccc(F)c2)n2nc(SCc3ccccc3)nc2N1 (stereo unspecified),-0.6
COc1ccc(/C=C/C(=O)Nc2ccc3nc4c(c(Nc5ccc(OC)c(OC)c5)c3c2)CCCC4)cc1,2
Cc1ccc(CNC(=O)Cc2c(C)c3c(cc(C)c4c(C)coc43)oc2=O)cc1,-0.43
O=C(CSc1nc2ccccc2n1Cc1ccccc1)N1CCN(c2ccc(F)cc2)CC1,-1.6
CCOc1ccc2nc(Cl)c(C3CC(c4ccc(C)cc4)=NN3C(=O)CCCC(=O)O)cc2c1 (stereo unspecified),-2.9
CCOc1ccc(NC(=O)c2sc3nc4c(cc3c2N)CCCCCC4)cc1,-0.95
FC(F)(F)c1ccnc(NC2COCC2Cc2ccncc2)n1 (stereo unspecified),-0.45
COc1cccc(CN2C(=O)c3ccccc3C2C(=O)NCCc2ccccc2)c1 (stereo unspecified),-1.2
CCN(CC)C(=O)Cn1cc(-c2nc(-c3ccc4nc[nH]c4c3)no2)nn1,-0.57
Cc1ccc(NC(=O)CN(c2ccccc2)S(=O)(=O)N(C)C)cc1Cl,-1
N#Cc1cccnc1NCC(c1ccccn1)N1CCOCC1 (stereo unspecified),0.03
Clc1ccccc1-n1nc(Cn2cncn2)nc1C1CCC1,0.86
COc1cc(C2NC(=O)c3c(sc4c3CCN(C)C4)N2)cc(OC)c1OC (stereo unspecified),-3.6
Cc1ccc(NC(=O)Cn2c(=O)c3ccc(Cl)cc3n3nncc23)cc1,-0.98
CSCc1ccc(C(=O)NCCC2CCCCN2S(C)(=O)=O)o1 (stereo unspecified),-0.14
CC(C)c1ccc(NC(=O)C(Cc2ccccc2)NS(=O)(=O)c2ccc3c(c2)CCC(=O)N3)cc1 (stereo unspecified),-1.1
Clc1cnn(CCN2CCC3C(C2)OCc2cnnn23)c1 (stereo unspecified),-0.14
COc1ccc(CC(=O)Nc2sc3c(c2C(=O)Nc2cccc(C)c2)CCCCC3)cc1,-1.4
CCOC(=O)c1c(C)c(-c2ccccc2)n(CC(=O)Nc2cccc(F)c2)c1C,-1.3

# Source: PubChem BioAssay (ICCB-Longwood Screening Facility, Harvard Medical School)

# Only part of the results is shown (hit frequency here may not be typical).
